High-throughput results from PubChem BioAssay.
dFosB act: enhances mouse delta FosB homodimer DNA binding | activation, % at 25 µM | purified delta FosB, TAMRA-CDK5 oligo fluorescence polarization; percent of positive-control signal above neutral wells | hit rate 0.99% among 340,000 | P13346 | AID 493131;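 active = mean activation above about 17%, with every replicate also reaching it, limit read from the data, passing the limit was not always enough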;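 also: fluorescence polarization rise as delta FosB binds a TAMRA Cdk5 AP-1 oligo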
Pemphigus Ab inh: blocks pemphigus antibody binding to human desmoglein-3; binding (percent of control), % at 10 µM; hit rate 0.48% among 310,000; P32926; AID 588358; DSG3-coupled beads, scFv-anti-DSG3-GFP binding, flow cytometry; stronger effect = lower value;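 active = binding more than 3 SD below its plate's average and above zero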; also: some compounds called inactive have numbers as strong as hits
SUMO Mot1 rescue: inhibitors of SUMOylation pathway: yeast Mot1-301 growth rescue. growth rescue, % at 18.8 µM. hit rate 1% among 320,000. AID 2716. S. cerevisiae Mot1-301 growth rescue, ATP luminescence, 38.5C; percent above DMSO median, 100 means doubled;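 active = every valid replicate shows activation above 250% relative to neutral control wells; inactive = the rest, any valid replicate at or below 250%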;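 also: OY570 slx delta 5 strain wells were the positive control but not used for scaling; some compounds called inactive have numbers as strong as hits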
NSD2 HMT inh: inhibitors of human histone methyltransferase NSD2. hit rate 0.54% among 310,000. NSD2 peptide methylation, AlphaScreen, 120 min. AID 743445. O96028. inhibition, % at 12.5 µM; in the data active = inhibition above about 50%
Target sequence (O96028 whole entry, looked up): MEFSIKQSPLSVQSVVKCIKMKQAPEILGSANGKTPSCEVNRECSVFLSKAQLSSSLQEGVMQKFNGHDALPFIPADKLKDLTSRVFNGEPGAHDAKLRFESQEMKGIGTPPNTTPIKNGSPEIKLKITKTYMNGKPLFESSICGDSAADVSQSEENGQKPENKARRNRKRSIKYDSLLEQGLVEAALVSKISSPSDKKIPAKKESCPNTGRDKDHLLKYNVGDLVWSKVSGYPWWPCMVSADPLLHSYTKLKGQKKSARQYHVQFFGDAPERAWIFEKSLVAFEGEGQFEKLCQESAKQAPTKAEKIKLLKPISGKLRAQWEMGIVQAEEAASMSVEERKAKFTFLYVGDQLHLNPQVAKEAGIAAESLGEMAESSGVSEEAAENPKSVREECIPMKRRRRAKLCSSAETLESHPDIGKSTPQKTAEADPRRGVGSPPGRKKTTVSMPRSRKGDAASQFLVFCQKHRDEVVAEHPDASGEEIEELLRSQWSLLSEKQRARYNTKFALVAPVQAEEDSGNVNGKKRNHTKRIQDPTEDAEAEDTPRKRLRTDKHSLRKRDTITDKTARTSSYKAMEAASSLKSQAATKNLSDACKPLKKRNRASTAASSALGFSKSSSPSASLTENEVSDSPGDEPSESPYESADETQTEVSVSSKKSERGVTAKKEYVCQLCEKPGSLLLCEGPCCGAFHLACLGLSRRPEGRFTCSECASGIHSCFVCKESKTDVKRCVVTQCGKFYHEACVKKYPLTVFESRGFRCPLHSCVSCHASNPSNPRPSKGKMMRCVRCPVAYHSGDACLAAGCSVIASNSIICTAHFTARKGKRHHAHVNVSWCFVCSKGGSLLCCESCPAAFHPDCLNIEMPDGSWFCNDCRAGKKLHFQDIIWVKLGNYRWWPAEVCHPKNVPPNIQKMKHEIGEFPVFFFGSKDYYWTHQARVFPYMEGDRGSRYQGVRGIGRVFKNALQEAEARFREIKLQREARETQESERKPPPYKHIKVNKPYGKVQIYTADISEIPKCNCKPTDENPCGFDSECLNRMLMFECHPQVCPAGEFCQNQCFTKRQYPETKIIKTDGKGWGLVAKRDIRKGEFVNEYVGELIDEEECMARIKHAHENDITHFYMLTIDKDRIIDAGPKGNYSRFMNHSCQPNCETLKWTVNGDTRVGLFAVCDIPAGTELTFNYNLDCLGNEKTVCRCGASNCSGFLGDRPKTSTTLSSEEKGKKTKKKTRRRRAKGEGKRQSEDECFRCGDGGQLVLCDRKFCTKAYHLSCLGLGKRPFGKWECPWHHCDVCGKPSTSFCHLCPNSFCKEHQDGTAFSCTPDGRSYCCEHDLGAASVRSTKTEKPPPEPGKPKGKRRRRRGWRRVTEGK
MITF TRPM1 HTS: increases MITF-driven TRPM1 promoter luciferase signal. AID 588334. hit rate 0.75% among 300,000. SK-MEL-5 TRPM1-promoter luciferase, 24 h; % of positive control, neutral wells = 0. activation, % at 12.5 µM;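 active = mean activation of at least 80% with every replicate also reaching 80%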;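 also: 0% = neutral control wells and 100% = parthenolide positive control wells; values of inactives mirror those of a sister screen read the other way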
Arrestin-AP2 inh: blocks beta-arrestin peptide binding to AP2 adaptin. inhibition, % at 10 µM. FITC-arrestin peptide / GST-AP2 beads, flow cytometry; AP2 beta2 appendage carries R879A mutation. hit rate 0.31% among 340,000. AID 504490;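 active = inhibition above a set limit, near 3 SD of compounds lacking own fluorescence, cut at about 54% in these data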;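 also: plate controls were DMSO wells for no effect and 5 µM unlabelled arrestin peptide for full effect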
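Material – AP2 appendage R879A on GSH beads · Buffer or medium – PBS with 0.05% Tween 20 and 0.1% BSA · Probe or stimulus – fluorescein-tagged arrestin peptide at 50 nM final · Incubation – compound with beads 12 min RT, then probe 1 h RT · Detection – high-throughput flow cytometry of beads, ex 488, em 535 nm · Evaluation – percent response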
* = called active by the depositor; & = joins results of further samples; ! = not confirmed by another sample. This is a subset (hit frequency here may not be typical).

Results for COc1cc2nc(N3CCN(C(=O)c4ccco4)CC3)nc(N)c2cc1OC ?
dFosB act: -5.3; Pemphigus Ab inh: 117.3; SUMO Mot1 rescue: -3.6&-4.9; MITF TRPM1 HTS: -52.0; Arrestin-AP2 inh: -3.0

Results for NCCN1C(=O)c2ccccc2C1(O)c1ccc(Cl)cc1 (stereo not drawn) ?
Pemphigus Ab inh: 104.1; NSD2 HMT inh: -3.1

What do the screens show for `COc1ccc2cc(C(C)C(=O)O)ccc2c1` (stereo not drawn)?
dFosB act: 3.6; Pemphigus Ab inh: 109.0; SUMO Mot1 rescue: 9.7; MITF TRPM1 HTS: 9.3; Arrestin-AP2 inh: -3.6

Results for CCN1CCN(C(=O)N[C@@H](C(=O)N[C@@H]2C(=O)N3C(C(=O)O)=C(CSc4nnnn4C)CS[C@H]23)c2ccc(O)cc2)C(=O)C1=O ?
dFosB act: 0.7; Pemphigus Ab inh: 107.5; SUMO Mot1 rescue: 1.1; MITF TRPM1 HTS: -4.4; Arrestin-AP2 inh: -8.4

Results for Cc1ccc(CNc2ccc3nnc(-c4ccccc4)n3n2)cc1 ?
dFosB act: 23.4*; Pemphigus Ab inh: 98.3; SUMO Mot1 rescue: 247.0; Arrestin-AP2 inh: -20.3

What do the screens show for `CC(C)[C@H](CO)Nc1nc(Nc2ccc(Cl)c(C(=O)O)c2)c2ncn(C(C)C)c2n1`?
dFosB act: 0.9; Pemphigus Ab inh: 101.8; SUMO Mot1 rescue: 184.6; MITF TRPM1 HTS: 0.5; Arrestin-AP2 inh: -4.3

How did Cc1cnc(C(=O)NCCc2ccc(S(=O)(=O)NC(=O)NC3CCCCC3)cc2)cn1 do in these assays?
dFosB act: -4.0; Pemphigus Ab inh: 100.0; SUMO Mot1 rescue: 0.6&1.4; MITF TRPM1 HTS: 3.3; Arrestin-AP2 inh: 13.8

Results for CNNCc1ccc(C(=O)NC(C)C)cc1 ?
dFosB act: -2.9; Pemphigus Ab inh: 119.7; SUMO Mot1 rescue: -10.1; MITF TRPM1 HTS: 16.0; Arrestin-AP2 inh: 8.9

Results for Nc1ccc(S(N)(=O)=O)cc1 ?
dFosB act: -1.3; Pemphigus Ab inh: 98.5; SUMO Mot1 rescue: 69.3; MITF TRPM1 HTS: -3.3; Arrestin-AP2 inh: 0.9

Results for CCCNCC(O)COc1ccccc1C(=O)CCc1ccccc1 (stereo not drawn) ?
dFosB act: 1.4; Pemphigus Ab inh: 108.6; SUMO Mot1 rescue: 400.2*!; MITF TRPM1 HTS: 30.1; Arrestin-AP2 inh: -9.0

What do the screens show for `O=C1c2ccccc2-c2n[nH]c3cccc1c23`?
dFosB act: -7.2; Pemphigus Ab inh: 101.0; MITF TRPM1 HTS: -7.7; Arrestin-AP2 inh: 9.4

What do the screens show for `O=[N+]([O-])c1ccc2c(c1)-c1ccccc1C2=NO`?
dFosB act: 5.3; Pemphigus Ab inh: 91.8; NSD2 HMT inh: 1.6; MITF TRPM1 HTS: 9.1; Arrestin-AP2 inh: 9.1

What do the screens show for `O=C1C(CCS(=O)c2ccccc2)C(=O)N(c2ccccc2)N1c1ccccc1` (stereo not drawn)?
dFosB act: 2.0; Pemphigus Ab inh: 115.3; SUMO Mot1 rescue: 77.7; MITF TRPM1 HTS: 1.1; Arrestin-AP2 inh: 10.0

How did O=C(NC1CCC(Oc2ccc(C(=O)O)cc2)CC1)NC12CC3CC(CC(C3)C1)C2 (stereo not drawn) do in these assays?
dFosB act: -2.0; Pemphigus Ab inh: 99.1; SUMO Mot1 rescue: -0.7; MITF TRPM1 HTS: 4.8; Arrestin-AP2 inh: -1.8

What do the screens show for `CC(C)[N+]1(C)[C@@H]2CC[C@H]1CC(OC(=O)C(CO)c1ccccc1)C2` (stereo partly drawn)?
dFosB act: -0.4&2.0&6.1; Pemphigus Ab inh: 102.0&106.6&112.6; SUMO Mot1 rescue: 296.7&-1.4&3.0; MITF TRPM1 HTS: -8.1&15.1&-2.1; Arrestin-AP2 inh: -2.1&12.8&0.1

What do the screens show for `CC(C)n1cnc2c(NCc3ccccc3)nc(NCc3ccccc3)nc21`?
dFosB act: -0.7; Pemphigus Ab inh: 104.3; SUMO Mot1 rescue: 244.8; MITF TRPM1 HTS: 0.8; Arrestin-AP2 inh: 14.3

What do the screens show for `NNC(=O)c1nc(-c2ccccc2)cc(-c2ccccc2)n1`?
dFosB act: -25.1; Pemphigus Ab inh: 93.0; SUMO Mot1 rescue: -2.3; NSD2 HMT inh: 54.4*; Arrestin-AP2 inh: -8.4

What do the screens show for `COc1cccc(Nc2nc(NCC3CCCO3)c3ccccc3n2)c1` (stereo not drawn)?
dFosB act: -6.1; Pemphigus Ab inh: 104.5; SUMO Mot1 rescue: 18.2; NSD2 HMT inh: -0.6; Arrestin-AP2 inh: 10.9

An excerpt from further up:
What do the screens show for `O=[N+]([O-])c1ccc2c(c1)-c1ccccc1C2=NO`?
dFosB act: 5.3; Pemphigus Ab inh: 91.8; NSD2 HMT inh: 1.6; MITF TRPM1 HTS: 9.1; Arrestin-AP2 inh: 9.1

What do the screens show for `O=C1C(CCS(=O)c2ccccc2)C(=O)N(c2ccccc2)N1c1ccccc1` (stereo not drawn)?
dFosB act: 2.0; Pemphigus Ab inh: 115.3; SUMO Mot1 rescue: 77.7; MITF TRPM1 HTS: 1.1; Arrestin-AP2 inh: 10.0

How did O=C(NC1CCC(Oc2ccc(C(=O)O)cc2)CC1)NC12CC3CC(CC(C3)C1)C2 (stereo not drawn) do in these assays?
dFosB act: -2.0; Pemphigus Ab inh: 99.1; SUMO Mot1 rescue: -0.7; MITF TRPM1 HTS: 4.8; Arrestin-AP2 inh: -1.8

What do the screens show for `CC(C)[N+]1(C)[C@@H]2CC[C@H]1CC(OC(=O)C(CO)c1ccccc1)C2` (stereo partly drawn)?
dFosB act: -0.4&2.0&6.1; Pemphigus Ab inh: 102.0&106.6&112.6; SUMO Mot1 rescue: 296.7&-1.4&3.0; MITF TRPM1 HTS: -8.1&15.1&-2.1; Arrestin-AP2 inh: -2.1&12.8&0.1

What do the screens show for `CC(C)n1cnc2c(NCc3ccccc3)nc(NCc3ccccc3)nc21`?
dFosB act: -0.7; Pemphigus Ab inh: 104.3; SUMO Mot1 rescue: 244.8; MITF TRPM1 HTS: 0.8; Arrestin-AP2 inh: 14.3

What do the screens show for `NNC(=O)c1nc(-c2ccccc2)cc(-c2ccccc2)n1`?
dFosB act: -25.1; Pemphigus Ab inh: 93.0; SUMO Mot1 rescue: -2.3; NSD2 HMT inh: 54.4*; Arrestin-AP2 inh: -8.4

What do the screens show for `COc1cccc(Nc2nc(NCC3CCCO3)c3ccccc3n2)c1` (stereo not drawn)?
dFosB act: -6.1; Pemphigus Ab inh: 104.5; SUMO Mot1 rescue: 18.2; NSD2 HMT inh: -0.6; Arrestin-AP2 inh: 10.9

Two records picked at random from those above, as already listed:
How did Cc1cnc(C(=O)NCCc2ccc(S(=O)(=O)NC(=O)NC3CCCCC3)cc2)cn1 do in these assays?
dFosB act: -4.0; Pemphigus Ab inh: 100.0; SUMO Mot1 rescue: 0.6&1.4; MITF TRPM1 HTS: 3.3; Arrestin-AP2 inh: 13.8

What do the screens show for `COc1cccc(Nc2nc(NCC3CCCO3)c3ccccc3n2)c1` (stereo not drawn)?
dFosB act: -6.1; Pemphigus Ab inh: 104.5; SUMO Mot1 rescue: 18.2; NSD2 HMT inh: -0.6; Arrestin-AP2 inh: 10.9
